Calb FLC: affects C. albicans growth with fluconazole. C. albicans CaCi-2 (fluconazole-resistant clinical isolate) + fluconazole, Alamar Blue growth, 48 h. growth inhibition, % (concentration not given with the values). 300,000 compounds, 0.57% hits. AID 1979;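 active means most replicates above 75%; inconclusive means exactly half above 75%; inactive means most below 75%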;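 further: all wells also contain fluconazole at 8 µg/ml as a sub-toxic cotreatment; 0% = median of DMSO wells and 100% = median of geldanamycin control wells; wells of about 8 µL received 7.5 nL stock; the first replicate is given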
A1 inh: inhibitors of the anti-apoptotic protein A1, read as caspase activation; MEF A1-2A-BIM cells, Caspase-Glo 3/7 luminescence, 3 h; percent of clofoctol response, vehicle zero; caspase activation, % (no concentration beside the values); 330,000 compounds, 0.066% hits; AID 2462;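 active means over half of replicate activation scores above 10%, or exactly half above 10 with the replicate mean above 10; inconclusive means replicate mean below 10 yet half the replicates above 10; inactive means over half of replicates below 10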;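 further: wells of about 30 µL received 50 nL stock; many hits fall short of the cut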
rRNA inh HTS: selective bacterial rRNA inhibition in E. coli | E. coli WT GFP vs humanized-ribosome RFP mutants, fluorescence, 24 h; active compounds read low; DMSO median 0, no signal -100 | GFP signal change (wild-type ribosome), % (no concentration beside the values) | 350,000 compounds, 1.6% hits | AID 720706;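 active means significant combined selectivity score with lowered wild-type GFP, culture density cut under 30%, mutant RFP and density less affected; inactive means any of these conditions unmet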; further: one replicate is shown; some compounds called inactive have numbers as strong as hits
Beta cell apopt: beta cell apoptosis inhibition. INS-1E cytokine-induced death, ATP luminescence, 48 h; percent of positive-control rescue, neutral wells zero. protection from apoptosis, % (concentration not given with the values). 300,000 compounds, 0.8% hits;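 active means all replicates at 75% or more, or half of them and the mean; inconclusive means half reach 75% but not the mean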;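 further: 0% = cytokine-treated negative control wells and 100% = positive control rescue; higher means more ATP so stronger rescue from cytokine killing; wells of about 40 µL received 100 nL stock; the first replicate is given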
LANA-H2A inh: blocks KSHV LANA binding to histone H2A/H2B; Q9QR71; cell-free LANA-H2A/H2B peptide, fluorescence polarization; inhibition, % (no concentration beside the values); 320,000 compounds, 0.6% hits; in the data active means inhibition mostly above about 10%, no sharp cut-off; inactive means mostly below about 6.7%;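 further: stock transfer was 7.5 nL into about 10 µL; 0% = median of vehicle wells and 100% = median of positive control wells; one replicate is shown; the record names a cut of 25% in any replicate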
Target sequence (Q9QR71 whole entry, looked up): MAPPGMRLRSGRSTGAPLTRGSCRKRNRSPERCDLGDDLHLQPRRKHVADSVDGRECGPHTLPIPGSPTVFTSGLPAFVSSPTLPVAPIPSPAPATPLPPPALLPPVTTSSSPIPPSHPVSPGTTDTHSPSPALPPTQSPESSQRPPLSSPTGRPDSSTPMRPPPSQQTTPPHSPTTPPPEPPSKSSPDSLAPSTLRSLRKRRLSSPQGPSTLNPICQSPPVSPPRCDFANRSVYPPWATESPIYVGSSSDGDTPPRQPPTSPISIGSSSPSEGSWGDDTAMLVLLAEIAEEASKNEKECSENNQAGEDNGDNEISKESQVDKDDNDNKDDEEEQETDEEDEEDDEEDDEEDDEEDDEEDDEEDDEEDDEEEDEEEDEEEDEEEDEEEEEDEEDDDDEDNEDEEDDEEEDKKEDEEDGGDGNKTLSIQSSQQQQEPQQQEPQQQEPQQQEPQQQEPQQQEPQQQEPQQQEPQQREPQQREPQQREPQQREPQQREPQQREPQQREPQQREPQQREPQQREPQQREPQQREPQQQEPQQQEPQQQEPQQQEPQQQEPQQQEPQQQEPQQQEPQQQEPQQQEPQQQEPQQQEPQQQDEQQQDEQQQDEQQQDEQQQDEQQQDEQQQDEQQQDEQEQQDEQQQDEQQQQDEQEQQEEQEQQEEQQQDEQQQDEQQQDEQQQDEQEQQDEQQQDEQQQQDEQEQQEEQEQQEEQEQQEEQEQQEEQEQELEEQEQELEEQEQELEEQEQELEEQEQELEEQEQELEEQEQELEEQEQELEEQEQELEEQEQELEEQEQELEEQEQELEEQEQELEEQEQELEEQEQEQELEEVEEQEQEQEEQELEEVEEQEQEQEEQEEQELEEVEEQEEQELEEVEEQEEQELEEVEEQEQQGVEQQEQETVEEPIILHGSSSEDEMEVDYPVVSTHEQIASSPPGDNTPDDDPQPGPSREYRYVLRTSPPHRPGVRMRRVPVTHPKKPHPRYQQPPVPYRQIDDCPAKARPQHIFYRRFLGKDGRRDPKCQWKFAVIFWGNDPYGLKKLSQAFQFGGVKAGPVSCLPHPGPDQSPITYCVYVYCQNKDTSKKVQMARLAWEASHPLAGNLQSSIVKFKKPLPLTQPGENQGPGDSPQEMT
ALR inh: human ALR oxidase inhibition via reduced H2O2; P55789; purified ALR, DTT oxidation, H2O2 HRP-luminol luminescence; inhibition, % (concentration not given with the values); 290,000 compounds, 3.8% hits;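 active means mean and each replicate at 75% or more; inconclusive means only one of the two met; inactive means neither met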;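 further: stock transfer was 7.5 nL into about 7.5 µL; 0% = neutral wells and 100% = wells with inactivated enzyme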
B2AR ag: agonists of human beta-2 adrenergic receptor inducing internalization; P07550; Am2.2-beta2AR cells, FAP receptor internalization, flow cytometry; reference of the scale not given here; response, % (test concentration not listed); 340,000 compounds, 0.43% hits;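 active means response above a set limit, near 3 SD of response in nonfluorescent compounds, cut at about 42% in these data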;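 further: stock transfer was 100 nL into about 11 µL; a reference agonist was the positive control; negative values mostly stem from fluorescent compounds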
T cruzi inh: T. cruzi replication inhibition. inhibition, % (test concentration not listed). T. cruzi beta-gal in NIH3T3, luminescence, 90 h. 300,000 compounds, 1.4% hits;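 active means mean inhibition across valid replicates above about 55%, limit read from the data; inconclusive means mean below that limit but half or more replicates reach it; inactive means mean below it, under half of replicates reach it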;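 further: signal also drops with host cell toxicity which is not excluded here; 0% = plate median of DMSO wells and 100% = zero luminescence signal; higher percent means less beta-gal luminescence so fewer parasites; stock transfer was 50 nL into about 50 µL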
rRNA inh HTS OD600: second read-out of rRNA inh HTS, no call of its own (marks repeat the call); OD600 change, %; measured here: OD600 growth;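 optical density of the mix in the first replicate; 0 = DMSO median and -100 = no signal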
rRNA inh HTS RFP: recorded beside rRNA inh HTS, whose call it bears; RFP signal change, %; measured here: RFP humanized mutant strains;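 first replicate; 0 = DMSO median and -100 = no signal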
* hit, by the source's call. This is a subset, so the mix of outcomes need not match the whole.

For CC(C)CN(CC(C)C)c1ccc(/C=N/n2cnnc2)cc1[N+](=O)[O-] the results were Calb FLC 22, A1 inh 0.3, rRNA inh HTS 0, Beta cell apopt 0, LANA-H2A inh -0.6, ALR inh -98, B2AR ag 0, T cruzi inh 51, rRNA inh HTS OD600 -6 and rRNA inh HTS RFP 1.5.
Cc1noc(C)c1COc1cccc(C(=O)Nc2ccccc2N2CCOCC2)c1 was read as Calb FLC 2, A1 inh 0.3, rRNA inh HTS -1, Beta cell apopt 4, LANA-H2A inh 3.2, ALR inh -5, B2AR ag -9, T cruzi inh 1, rRNA inh HTS OD600 -6 and rRNA inh HTS RFP -0.1.
For Nc1nc(-c2ccc(Cl)cc2)nn1C(=O)c1cccnc1 the results were Calb FLC 12, A1 inh 0.0, Beta cell apopt -15, LANA-H2A inh 0.7, ALR inh 3, B2AR ag -7 and T cruzi inh -10.
`COc1ccc(C(=O)OCC(=O)c2ccc(C3CCCCC3)cc2)cc1` gave Calb FLC -13, A1 inh -0.9, Beta cell apopt 1, LANA-H2A inh -4.0, B2AR ag -3 and T cruzi inh 8.
Screening C=CCn1c(SCC(=O)NCCOC)nnc1-c1cc2c(s1)CCC(CC)C2 (stereo unspecified) returned Calb FLC -8, A1 inh 0.4, Beta cell apopt -6, LANA-H2A inh 5.7, ALR inh 0, B2AR ag -24 and T cruzi inh 14.
`O=C(c1cccc(F)c1)N1CCCC(C(=O)N2CCN(c3ccccc3)CC2)C1` (stereo unspecified) gave Calb FLC -4, A1 inh 0.2, rRNA inh HTS 8, Beta cell apopt 7, LANA-H2A inh 13, ALR inh 11, B2AR ag -1, T cruzi inh 5, rRNA inh HTS OD600 6 and rRNA inh HTS RFP 3.2.
Cc1onc(-c2ccccc2)c1-c1csc(COc2ccccc2)n1 was read as Calb FLC 2, A1 inh 0.3, rRNA inh HTS -14, Beta cell apopt 4, LANA-H2A inh -3.2, ALR inh 1, B2AR ag -1, T cruzi inh 28, rRNA inh HTS OD600 -15 and rRNA inh HTS RFP 1.3.
Cc1ccc2c(c1)NC(=O)C(CC(=O)O)O2 (stereo unspecified) was read as Calb FLC -6, A1 inh -1.1, rRNA inh HTS 11, Beta cell apopt -6, LANA-H2A inh 0.6, ALR inh 25, B2AR ag 5, T cruzi inh 4, rRNA inh HTS OD600 14 and rRNA inh HTS RFP -0.7.
`COc1cc2c(cc1NC(=O)CSc1nc3ccc(C)cc3[nH]1)oc1ccccc12` gave Calb FLC 8, A1 inh -0.4, Beta cell apopt 13, LANA-H2A inh -5.0, ALR inh -4 and T cruzi inh 47.
`Cc1c(N(C)C(=O)c2ccc3c(c2)OCO3)c(=O)n(-c2ccccc2)n1C` gave Calb FLC -5, A1 inh 0.1, Beta cell apopt 2, LANA-H2A inh 0.5, ALR inh 2, B2AR ag 4 and T cruzi inh -17.
Screening O=C(Nc1ccc(OCc2ccccc2)cc1)c1cccc([N+](=O)[O-])c1 returned Calb FLC -14, A1 inh -4.7, Beta cell apopt 6, LANA-H2A inh -5.2, B2AR ag -1 and T cruzi inh 12.
For O=C(CCN1C(=O)C2C3C=CC(C3)C2C1=O)Nc1ccc2c(c1)OCO2 (stereo unspecified) the results were Calb FLC 2, A1 inh -0.9, LANA-H2A inh -1.1 and B2AR ag -8.
CCCCCCCCCCCC(=O)NC1CCS(=O)(=O)C1 (stereo unspecified) was read as Calb FLC 23, A1 inh 1.1, rRNA inh HTS -14, Beta cell apopt -4, LANA-H2A inh 3.5, ALR inh -36, B2AR ag -1, T cruzi inh 1, rRNA inh HTS OD600 -26 and rRNA inh HTS RFP 5.9.
Screening Nc1cccc(-c2cn3cccnc3n2)c1 returned Calb FLC 12, A1 inh 1.1, rRNA inh HTS 0, Beta cell apopt -2, LANA-H2A inh -1.3, ALR inh 99*, B2AR ag -3, T cruzi inh -3, rRNA inh HTS OD600 5 and rRNA inh HTS RFP 4.6.
For CC(=O)N=C1SC2CS(=O)(=O)CC2N1c1ccc(-c2nc3ccc(C)cc3s2)cc1 (stereo unspecified) the results were Calb FLC 2, A1 inh -0.2, Beta cell apopt -7, LANA-H2A inh 1.6 and T cruzi inh 15.
For CCCn1nnc(NC(=S)NC(=O)c2cccs2)n1 the results were Calb FLC -5, A1 inh -0.3, Beta cell apopt 1, LANA-H2A inh -1.6, ALR inh 43, B2AR ag -5 and T cruzi inh -8.
Screening N#Cc1cc(-c2ccccc2)oc1NC(=O)c1ccco1 returned Calb FLC 44, A1 inh -1.2, Beta cell apopt 2, LANA-H2A inh -6.1, ALR inh 70, B2AR ag -14 and T cruzi inh -10.
O=C(CCNC(=O)c1ccc([N+](=O)[O-])cc1)Nc1ccc(F)cc1 was read as Calb FLC -28, A1 inh -2.4, rRNA inh HTS 0, Beta cell apopt 8, LANA-H2A inh -0.8, B2AR ag 1, T cruzi inh 0, rRNA inh HTS OD600 6 and rRNA inh HTS RFP -4.1.
`Cn1ccc(=NC=C(C#N)C#N)c2ccccc21` gave Calb FLC 4, A1 inh inconclusive, rRNA inh HTS 23, Beta cell apopt 0, LANA-H2A inh -18, ALR inh -1, B2AR ag 1, T cruzi inh -2, rRNA inh HTS OD600 9 and rRNA inh HTS RFP 0.6.
CC(C)CC(NC(=O)C(NC(=O)OC(C)(C)C)C(C)C)C(N)=O (stereo unspecified) was read as Calb FLC -23, A1 inh 0.7, rRNA inh HTS 9, Beta cell apopt 0, LANA-H2A inh -2.5, ALR inh -8, B2AR ag 10, T cruzi inh -3, rRNA inh HTS OD600 10 and rRNA inh HTS RFP 2.8.
COc1ccc(C(C)=O)cc1COC(=O)C(CO)NS(=O)(=O)c1ccc(Br)cc1 (stereo unspecified) was read as Calb FLC 7, A1 inh 1.3, rRNA inh HTS -13, Beta cell apopt -1, LANA-H2A inh -2.2, B2AR ag -2, T cruzi inh -7, rRNA inh HTS OD600 -8 and rRNA inh HTS RFP 4.4.
CC1CCCC(C)N1C(=O)COC(=O)CCC(=O)c1ccc(F)cc1 (stereo unspecified) was read as A1 inh -0.1, rRNA inh HTS -3, Beta cell apopt -4, LANA-H2A inh 0.2, ALR inh -11, B2AR ag 0, rRNA inh HTS OD600 5 and rRNA inh HTS RFP -1.7.
Screening CC(=O)N1CCC2(CC1)CC(=O)c1cc(OCC(=O)NCc3ccc(C)cc3)ccc1O2 returned Calb FLC 0, A1 inh -0.6, Beta cell apopt -1, LANA-H2A inh 3.6, ALR inh -6, B2AR ag -5 and T cruzi inh 13.
Screening O=C(CN1CCOCC1)Nc1ccc2c(c1)OC(F)(F)O2 returned Calb FLC -35, A1 inh 0.6, rRNA inh HTS 23, Beta cell apopt -2, LANA-H2A inh 0.1, ALR inh 0, B2AR ag 9, T cruzi inh -7, rRNA inh HTS OD600 9 and rRNA inh HTS RFP 1.4.

Some of these compounds in order of molecular weight, largest number first:
For CC(=O)N=C1SC2CS(=O)(=O)CC2N1c1ccc(-c2nc3ccc(C)cc3s2)cc1 (stereo unspecified) the results were Calb FLC 2, A1 inh -0.2, Beta cell apopt -7, LANA-H2A inh 1.6 and T cruzi inh 15.
Screening O=C(CN1CCOCC1)Nc1ccc2c(c1)OC(F)(F)O2 returned Calb FLC -35, A1 inh 0.6, rRNA inh HTS 23, Beta cell apopt -2, LANA-H2A inh 0.1, ALR inh 0, B2AR ag 9, T cruzi inh -7, rRNA inh HTS OD600 9 and rRNA inh HTS RFP 1.4.
For CCCn1nnc(NC(=S)NC(=O)c2cccs2)n1 the results were Calb FLC -5, A1 inh -0.3, Beta cell apopt 1, LANA-H2A inh -1.6, ALR inh 43, B2AR ag -5 and T cruzi inh -8.
`Cn1ccc(=NC=C(C#N)C#N)c2ccccc21` gave Calb FLC 4, A1 inh inconclusive, rRNA inh HTS 23, Beta cell apopt 0, LANA-H2A inh -18, ALR inh -1, B2AR ag 1, T cruzi inh -2, rRNA inh HTS OD600 9 and rRNA inh HTS RFP 0.6.
Screening Nc1cccc(-c2cn3cccnc3n2)c1 returned Calb FLC 12, A1 inh 1.1, rRNA inh HTS 0, Beta cell apopt -2, LANA-H2A inh -1.3, ALR inh 99*, B2AR ag -3, T cruzi inh -3, rRNA inh HTS OD600 5 and rRNA inh HTS RFP 4.6.

Going on with the list.
O=C(c1ccco1)N1CCN(C(c2ccccc2Cl)c2nnnn2Cc2ccco2)CC1 (stereo unspecified) was read as A1 inh -0.1, rRNA inh HTS -23, Beta cell apopt -1, LANA-H2A inh -1.1, ALR inh 7, B2AR ag 5, rRNA inh HTS OD600 -42 and rRNA inh HTS RFP -1.0.
CCN(CC(=O)NCc1cccs1)C(=O)Cc1ccc(Cl)c(Cl)c1 was read as A1 inh -0.7, rRNA inh HTS -42, Beta cell apopt -5, LANA-H2A inh 2.5, ALR inh -1, B2AR ag -6, rRNA inh HTS OD600 -67 and rRNA inh HTS RFP -28.
Screening O=S(=O)(Nc1c(O)ccc2ccccc12)c1ccccc1 returned Calb FLC -2, A1 inh 0.8, rRNA inh HTS -21, Beta cell apopt 0, LANA-H2A inh 1.5, ALR inh 58, B2AR ag 9, T cruzi inh 8, rRNA inh HTS OD600 -35 and rRNA inh HTS RFP 2.5.
Screening O=C(CC1C[C@H](C(=O)N2CCCCC2)[C@@]2(CCc3ccccc3)c3[nH]c4ccccc4c3CCN2C1=O)NCc1cccc(C(F)(F)F)c1 (stereo partly specified) returned A1 inh 0.0, rRNA inh HTS 15, Beta cell apopt 28, LANA-H2A inh -0.8, B2AR ag 3, rRNA inh HTS OD600 7 and rRNA inh HTS RFP -1.7.
Screening Cn1c(=O)c2c(-c3ccccc3)n(-c3ccccc3O)cc2n(C)c1=O returned Calb FLC 26, A1 inh -0.3, rRNA inh HTS 1, Beta cell apopt -11, LANA-H2A inh 0.1, ALR inh -13, B2AR ag -11, T cruzi inh -11, rRNA inh HTS OD600 -7 and rRNA inh HTS RFP 4.2.
Screening Cc1cc(C)nc(/N=C(/NC(=O)Nc2ccc(Cl)c(Cl)c2)Nc2ccccc2)n1 returned Calb FLC 4, A1 inh -0.2, Beta cell apopt 0, LANA-H2A inh 0.4, ALR inh -3 and T cruzi inh 3.
`CCn1cnc2sc(C(=O)N(Cc3ccc(N(C)C)cc3)Cc3ccco3)c(C)c2c1=O` gave Calb FLC 7, A1 inh 0.5, Beta cell apopt 6, LANA-H2A inh -2.6, ALR inh 27, B2AR ag -3 and T cruzi inh -6.

Screening results (PubChem)
